# OX1R antag = antagonists of human orexin 1 receptor (OX1R); Orexin/Hypocretin receptor type 1 (Homo sapiens), O43613; OX1R-expressing cells, FRET antagonist read-out; inhibition, % at 6.6 µM; actives 1.8% (n = 330,000); AID 485270, 2010; in the data active = inhibition mostly above about 38%, no sharp cut-off; inactive = mostly below about 40%;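 also: 0% = agonist challenge alone and 100% = reference antagonist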
# Target sequence (O43613 whole entry, looked up): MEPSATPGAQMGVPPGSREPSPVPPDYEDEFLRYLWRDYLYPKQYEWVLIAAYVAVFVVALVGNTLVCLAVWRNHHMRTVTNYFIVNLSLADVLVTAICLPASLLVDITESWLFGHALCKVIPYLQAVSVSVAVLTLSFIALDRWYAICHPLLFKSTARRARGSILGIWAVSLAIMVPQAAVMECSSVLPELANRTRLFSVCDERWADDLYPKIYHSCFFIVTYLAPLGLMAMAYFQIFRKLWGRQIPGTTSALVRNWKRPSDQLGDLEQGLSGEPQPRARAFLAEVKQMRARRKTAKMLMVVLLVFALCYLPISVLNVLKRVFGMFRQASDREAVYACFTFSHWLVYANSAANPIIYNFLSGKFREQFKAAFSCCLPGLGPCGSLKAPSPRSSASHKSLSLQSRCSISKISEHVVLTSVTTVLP
# An asterisk follows results filed as active. These rows are one share of the data, and most or all hits are left out here.
OX1R antag	structure
11	CCOC(=O)c1ccccc1NC(=O)C1CC(=O)N(c2ccccc2)C1 (stereo not drawn)
15	CCc1ccc(OC(C)C(=O)N(Cc2ccco2)C2CCS(=O)(=O)C2)cc1 (stereo not drawn)
22	Cc1ccc(COc2ccc(S(=O)(=O)N3CCCC3)cc2C(N)=O)cc1
12	Clc1ccc(/C=N\Nc2ccccc2)cc1
19	S=C(NCCCN1CCOCC1)Nc1ccc(Nc2ccccc2)cc1
8	COCCNC(=O)C1CCCN(c2nn3c(=O)cc(C)nc3s2)C1 (stereo not drawn)
16	O=c1oc2ccccc2cc1-c1csc(Nc2nc3c(F)cccc3s2)n1
25	COC(=O)c1ccccc1NC(=O)CNc1cc(Cl)ccc1N1CCOCC1
18	COC(=O)Cc1c[nH]c2cccc(OCC(O)CN(Cc3ccc([N+](=O)[O-])cc3)C(C)(C)C)c12 (stereo not drawn)
26	O=C(Nc1ccccc1[N+](=O)[O-])c1cccnc1Cl
14	Cc1cccc(OCC(=O)Nc2ccc(C(=O)NCc3cccnc3)cc2)c1
25	Cc1ccc(NC(=O)CN(C)CC(=O)Nc2ccccc2-c2ccccc2)cc1
2	CCNC(=O)CC1SC(=Nc2ccccc2C)N(C)C1=O (stereo not drawn)
15	CC1Cc2ccccc2N1CC(=O)Nc1ccc(Cl)c(S(=O)(=O)N(C)C)c1 (stereo not drawn)
17	CCOC(=O)c1ccc(NCc2ccc3c(c2)OCO3)cc1
29	CN(C)CCCN(C(=O)c1ccc(S(=O)(=O)N2CCCCCC2)cc1)c1nc2ccc(Br)cc2s1
2	COc1ccc(CNC(=O)c2cccs2)cc1
3	Cc1ccnc(NS(=O)(=O)c2ccc(NC(=O)C34CC5CC(CC(C5)C3)C4)cc2)n1
11	CN(CC(=O)Nc1ccccc1C(F)(F)F)C(=O)c1cc(-c2cccs2)nn1-c1ccccc1
8	O=C(NCc1ccc2c(c1)OCO2)c1ccc(CS(=O)(=O)c2cccc(C(F)(F)F)c2)o1
21	CCOC(=O)c1c(NC(=S)Nc2ccc(C)cc2)sc2c1CCC2
7	O=C1CSC(c2cccnc2)N1Cc1ccc(Cl)cc1 (stereo not drawn)
12	CC(=O)c1c(C(C)=O)c(C)n(-c2cccc3cccnc23)c1C
5	CN(CC(=O)Nc1ccc(F)cc1)C(=O)CN1C(=O)NC2(CCCCC2)C1=O
2	Cc1nn2c(=O)cc(COC(=O)c3ccc(S(=O)(=O)N4CCCCC4)cc3)nc2s1
-1	CC(=O)Nc1c(O)nc(SCC(=O)Nc2c(C)cccc2C)[nH]c1=O
7	FC(F)(F)c1cccc(-c2nnc(-c3ccccc3)c(N3CCOCC3)n2)c1
14	COC(=O)[C@@H](N)Cc1ccc(O)c(O)c1
9	COc1ccc(C(C(=O)NC2CCCC2)N2CCc3ccccc32)cc1 (stereo not drawn)
9	CC(C)S(=O)(=O)c1csc(NC(=O)Nc2ccc(Cl)cc2)c1
4	CCOC(=O)CNC1CC(=O)N(c2cccc(Cl)c2)C1=O (stereo not drawn)
1	O=c1cc[nH]c2cc(Cl)ccc12
2	CCOc1ccc(C(=O)NCCc2cnc[nH]2)cc1
18	Cc1ccc(C(=O)CC2(O)C(=O)N(Cc3ccccc3Cl)c3ccccc32)o1 (stereo not drawn)
14	COc1ccccc1N(CCC#N)C(=O)CSc1nc(-c2ccccc2)cn1N
22	Cc1ccc(S(=O)(=O)N2CCN(C(=O)c3cc(-c4cccs4)nn3-c3ccccc3)CC2)cc1
1	N#CCCNC(=O)CCN1CCOCC1
7	CCCCn1c(SCC(=O)O)nc2ccccc21
6	COc1ccc(OC)c(N2C(=O)CC(Cc3ccc(Cl)cc3)C2=O)c1 (stereo not drawn)
1	Cc1ccccc1N1CCN(C2CCCN(C(=O)CCN3CCCCO3)C2)CC1 (stereo not drawn)
4	COc1ccccc1C1CCN(c2ccc([N+](=O)[O-])c(OC)c2)CC1
15	c1ccc(Nc2nc(N3CCCC3)nc(N3CCCC3)n2)cc1
25	COC(=O)C1CCN(C(=O)COC(=O)c2cc([N+](=O)[O-])ccc2N2CCOCC2)CC1
12	COC(=O)CSc1ccsc1C(=O)O
6	O=C(O)CSc1nnc(C2COc3ccccc3O2)n1-c1ccccc1 (stereo not drawn)
4	O=C(Nc1ccc(S(=O)(=O)Nc2ncccn2)cc1)c1cccc(S(=O)(=O)N2CCOCC2)c1
-10	Cc1ccc(/C=C2\SC(=S)N(CC(=O)Nc3ncc(Cc4ccccc4Cl)s3)C2=O)cc1
11	CCN(CC)S(=O)(=O)c1ccc(F)c(C(=O)NCCC(C)C)c1
18	COC(=O)c1c(NC(=O)CN2CCC3(O)CCCCC3C2c2ccc(F)cc2)sc(C)c1C (stereo not drawn)
6	CCOc1ccc(NC(=O)CSc2nnc(CCNC(=O)c3ccc(OC)cc3)n2C)cc1
1	C=CCNC(=S)Nc1cc(Cl)ccc1OC
9	COc1ccc(N2CCOCC2)c(NC(=O)COc2cccc(C)c2C)c1
6	CC(C)CCN(CCC(C)C)CC(O)Cn1c2ccccc2c(=O)c2ccccc21 (stereo not drawn)
11	Cc1sc(NC(=O)Cc2ccc3c(c2)OCO3)nc1-c1ccc2c(c1)CCN2C(=O)c1ccccc1F
-2	CCOC(=O)N1CCN(Cc2nc3cc(NC(=O)CC(C)C)ccc3n2C)CC1
9	Cc1ccc2c(c1)C(c1ccccc1)N(C(=O)c1ccccc1)CC(=O)N2 (stereo not drawn)
13	O=C(CSCc1cccs1)N1CCCC1
15	O=C(NCCc1cccc(F)c1)C1CCN(S(=O)(=O)c2ccccc2)CC1
21	O=C(COC(=O)CCC(=O)c1ccc(Cl)cc1)NCC1CCCO1 (stereo not drawn)
7	Cc1cc(Oc2nc3c(C)cccn3c(=O)c2/C=C(\C#N)S(=O)(=O)c2ccc(Cl)cc2)ccc1Cl

# More compounds
OX1R antag	structure
6	Cc1cc(C)cc(OCCCCCNCCO)c1
26	CC(=O)/C=C(\C)Nc1ccccc1O
11	C=CCN(CC=C)C(=S)NC(=O)/C=C/c1ccc(C)cc1
10	Cc1ccc(/C(N)=N/OC(=O)Cc2ccccc2)cc1
25	CCOc1cc(C2C(C(=O)c3ccccc3)=C(C(=O)OC)Nc3nnnn32)ccc1O (stereo not drawn)
13	Cc1ccccc1C(=O)Nc1nnc(S(=O)(=O)N(C)Cc2ccco2)s1
19	Cc1ccc[n+](CC(=O)Nc2cccc([N+](=O)[O-])c2)c1
25	Cc1cccc(/C=N/NC(=O)Cn2nccc2C)n1
17	O=C(COC(=O)Cc1ccccc1[N+](=O)[O-])NCc1ccc(Cl)cc1
6	COc1ccc(CNc2ncccn2)cc1OC
11	C=CCn1cc(C(=O)NCCCN(CC)CC)c(=O)c2cc(S(=O)(=O)N3CCC(C)CC3)ccc21
14	NS(=O)(=O)c1ccc(NS(=O)(=O)c2ccc(C3CNC(=O)C3)cc2)cc1 (stereo not drawn)
7	CCc1nn(CC(=O)NCCN2CCOCC2)c(=O)c2cc3c(OC)cccc3n12
19	COC(=O)C1=C(C)NC(C)=C(C(=O)OC)C1C(=O)OCC(=O)N1c2ccccc2CC1C (stereo not drawn)
9	Cc1cc(C)n2nc(S(=O)(=O)N(C)c3ccccc3)nc2n1
18	CCC(C(=O)NC(C)CCc1ccccc1)n1nc(C)n2c(cc3occc32)c1=O (stereo not drawn)
10	O=C(NC1CCCCCC1)c1cccs1
14	Cc1cc(C(=O)Nc2cc(S(C)(=O)=O)ccc2Cl)no1
3	COc1cc2c(cc1OC)C(C)N(CCc1ccc(Cl)cc1)CC2 (stereo not drawn)
24	COc1cccc(OC)c1C(=O)Nc1ccc(N2CCCCC2)cc1
-3	NC(=O)C(=O)NN=C1CCC(c2ccccc2)CC1 (stereo not drawn)
-2	Cc1ccc(CNS(=O)(=O)c2c(C)[nH]c(C)c2C(=O)N2CCCCC2)o1
21	O=C(/C=C/c1ccc(Cl)cc1)N(Cc1ccccc1)C1CCS(=O)(=O)C1 (stereo not drawn)
18	Nc1[nH]nc2nc(N3CCOCC3)nc(-c3ccccc3)c12
26	CCCCN(C)CCCNC(=O)/C=C1\Sc2ccccc2NC1=O
-2	CCOc1cc(C(=O)NCCC(=O)N2CCC3(CC2)NCCc2[nH]cnc23)cc(OCC)c1OCC
17	COC(=O)COc1ccc(/C=C2/SC(=O)N(CC(=O)N3CCCC3)C2=O)cc1Br
6	Cc1ccc(CNC(=O)CN2C(=O)NC(C)(c3cccc(Br)c3)C2=O)cc1 (stereo not drawn)
12	O=C(CSc1cccc2cccnc12)N/N=C/c1ccc(F)cc1
4	Cc1ccc(NC(=O)CNC(C)c2ccccc2)cc1 (stereo not drawn)

# The closing 2 entries of the part before come first, to join the parts:
OX1R antag	structure
12	O=C(CSc1cccc2cccnc12)N/N=C/c1ccc(F)cc1
4	Cc1ccc(NC(=O)CNC(C)c2ccccc2)cc1 (stereo not drawn)
6	COc1ccc(NC(=O)Nc2nnc(N3CCC(C)CC3)s2)cc1OC
8	CCn1c(SCc2nc3ccccc3[nH]2)nnc1-c1cccs1
18	CN(C)S(=O)(=O)c1cccc(C(=O)C2=C3SC=C(c4ccccc4)N3CC2)c1
36	CCc1ccccc1Nc1cc(C(=O)NCc2ccccn2)c2ccccc2n1
9	Nc1cccc(C(=O)Nc2ccccc2Cl)c1
9	CCOC(=O)c1sc(NC(=O)C2CC2)cc1C
16	CC(C)(C)NC(=O)c1cc(Cl)ccc1[N+](=O)[O-]
15	COc1cccc(/C(O)=C2/C(=O)C(=O)N(CCN3CCOCC3)C2c2cccs2)c1 (stereo not drawn)
1	CCO[C@@H]1OC(C(=O)NC2CC2)=C[C@H](C2CCCCC2)[C@H]1CCCO
8	CCc1nc(N2CCN(CC(=O)NCC3CCCO3)CC2)c(C#N)c2c1COC(C)(C)C2 (stereo not drawn)
13	COc1ccc(C2SC[C@@H](C(=O)O)N2C(C)=O)cc1 (stereo partly drawn)
29	CC1CC(C)CN(C(=O)C2CCCN(S(=O)(=O)c3cccc4nonc34)C2)C1 (stereo not drawn)
11	Cc1ccccc1NC(=O)c1ccc2ccccc2c1
18	COc1ccc2[nH]c(=O)c(C(c3nnnn3C(C)(C)C)N(Cc3ccco3)CC3CCCO3)cc2c1 (stereo not drawn)
35	O=C(CN1C(=O)NC2(CCCC2)C1=O)Nc1cccc(C(F)(F)F)c1
11	CCOC(=O)CC(=O)Nc1ccsc1C(N)=O
16	O=C(CN1C(=O)C2CC=C(Cl)CC2C1=O)Nc1ccc(C(=O)O)cc1 (stereo not drawn)
7	Cc1ccc(C2NC(=O)c3c(sc4c3CCN(C)C4)N2)s1 (stereo not drawn)
4	CCn1nc(CCC(=O)O)c2ccccc2c1=O
21	O=C(C1=C[C@H](c2ccccc2)C[C@H](OCc2ccc(CO)cc2)O1)N1CCN(Cc2ccc3c(c2)OCO3)CC1
3	CCCOc1ccc(OCCN2CCCC(C)C2)cc1 (stereo not drawn)
23	CC1CN(c2cc3nccnc3cc2F)CC(C)O1 (stereo not drawn)
21	CCc1ccc(CNC(=O)CCCn2nc(C)n3ccnc3c2=O)cc1
17	CCCc1cc(=O)[nH]c(/N=C(/NC(=O)c2ccccc2)Nc2ccc3c(c2)OCCO3)n1
2	CCOC(=O)N1CCN(Cc2nc(N)nc(Nc3ccc(OCC)cc3)n2)CC1
20	Cc1nn(-c2ccccc2)nc1C(=O)NNC(=O)c1cccc2ccccc12
14	CC1(C)Oc2ccc3ccc(=O)oc3c2/C(=C/NNC(N)=O)C1=O
30	COc1ccc(-c2nc3ccccc3c(=O)n2CCOc2cccc(C)c2C)cc1
1	Cc1cccc([C@@H]2[C@@H]3C(=O)N(Cc4ccccc4)C(=O)[C@@H]3[C@]3(Cc4ccc(Cl)cc4)C(=O)N(c4ccc(Br)cc4)C(=O)N23)c1
12	CCCCn1c(N)c(NCc2ccccc2)c(=O)[nH]c1=O

# Structures above that have a COOH group (6):
OX1R antag	structure
7	CCCCn1c(SCC(=O)O)nc2ccccc21
12	COC(=O)CSc1ccsc1C(=O)O
6	O=C(O)CSc1nnc(C2COc3ccccc3O2)n1-c1ccccc1 (stereo not drawn)
13	COc1ccc(C2SC[C@@H](C(=O)O)N2C(C)=O)cc1 (stereo partly drawn)
16	O=C(CN1C(=O)C2CC=C(Cl)CC2C1=O)Nc1ccc(C(=O)O)cc1 (stereo not drawn)
4	CCn1nc(CCC(=O)O)c2ccccc2c1=O

# (continued)
OX1R antag	structure
5	CCC(=O)Nc1ccc(-c2nnc(SCC(=O)NCC3CCCO3)n2C)cc1 (stereo not drawn)
13	CN(C)c1ccc(S(=O)(=O)NCC(=O)OCC(=O)Nc2cccc(Cl)c2)cc1[N+](=O)[O-]
4	COc1ccc(CNC(=O)CCn2c(=O)oc3ccccc32)c(OC)c1
31	Cn1cnnc1Sc1nc([N+](=O)[O-])nn1C
12	O=C(c1ccc2c(c1)OCO2)N1CCN(S(=O)(=O)N2CCCCC2)CC1
3	COCCCNC(=O)CCn1c(=O)c2ccccc2n(CC(=O)Nc2ccc(C)cc2C)c1=O
0	Cc1ccc(-c2nn(CCC(N)=O)c(=O)c3ccccc23)cc1
21	Cc1ccccc1NC(=O)CSc1nc(Nc2ccccc2)nc(N2CCOCC2)n1
13	CC(C)NC(=O)CC1Nc2c3ccccc3nc(=S)n2C1=O (stereo not drawn)
-4	O=c1c2c3c(sc2nc(N2CCNCC2)n1-c1cccc(Cl)c1)CCCCC3
10	c1ccc(NC2=NCCCCS2)cc1
18	Cn1nc(C(=O)NCc2cccnc2)c2ccccc2c1=O

# 6 entries picked at random from those above, as already listed:
OX1R antag	structure
21	Cc1ccccc1NC(=O)CSc1nc(Nc2ccccc2)nc(N2CCOCC2)n1
5	CCC(=O)Nc1ccc(-c2nnc(SCC(=O)NCC3CCCO3)n2C)cc1 (stereo not drawn)
18	Cn1nc(C(=O)NCc2cccnc2)c2ccccc2c1=O
13	CN(C)c1ccc(S(=O)(=O)NCC(=O)OCC(=O)Nc2cccc(Cl)c2)cc1[N+](=O)[O-]
0	Cc1ccc(-c2nn(CCC(N)=O)c(=O)c3ccccc23)cc1
12	O=C(c1ccc2c(c1)OCO2)N1CCN(S(=O)(=O)N2CCCCC2)CC1
